# S aureus helic: blocks Staphylococcus aureus DNA helicase | purified S. aureus helicase, fluorescence unwinding assay; about half of the hits fall short of the stated cut | inhibition, %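 (tested at about 80 µM)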 | 120,000 compounds, 0.05% hits;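 active = both duplicates at 50% or more, or one of them with a favoured structure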;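 also: 0% = mean of negative control wells and 100% = mean of positive control wells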
# MgrA-DNA mod: S. aureus MgrA-DNA binding modulation | fluorescence polarization | inhibition, %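 (about 10 µg/mL by stock and volumes)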 | AID 602314 | 84,000 compounds, 0.13% hits;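 active = above 50% in either of two replicates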;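 also: 0% = protein plus DNA without compound and 100% = DNA alone without protein; higher means less MgrA bound to DNA so lower polarization; one replicate is shown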
# The depositor's hits bear a star; . = not tested or not shown; & = joins results of further samples. The list is partial; rates above refer to the full screens.
SMILES,S aureus helic,MgrA-DNA mod
O=C(O)C1CCCN(C(=O)c2ccccc2)C1 (stereo unspecified),8,.
CCN1C(=O)c2cccc3c(Cl)cc(Cl)c1c23,-11,1.3
Cc1ccc(S(=O)(=O)NCCN2CCNC2=O)cc1,-8,.
Cc1cccc2sc(NC(=O)[C@@H]3CCCN3C(=O)c3cccs3)nc12,-8,.
CCn1c(SCC(=O)N2CCC(C)CC2)nc2c(c1=O)SCC2,22,.
Cc1occc1-c1nnc(SCc2nc3ccccc3s2)n1Cc1ccccc1,-4,.
CCCN(Cc1nnc(-c2ccccc2Cl)o1)C(=O)Cc1coc2cc(C)c(C)cc12,-6,.
Cc1ccc(C2N=NNC2=S)c(C)c1 (stereo unspecified),.,-4.7
CCOc1ccccc1C(=O)N[C@H](C(=O)Nc1nccs1)C(C)C,-8,.
CC(C)Cn1c(SCc2cn3ccsc3n2)nc2sc3c(c2c1=O)CCCC3,11,.
Nc1nc(N2CCCC2)ncc1S(=O)(=O)c1ccc(C(F)(F)F)cn1,.,-2.2
Cc1ccccc1NCCC(=O)O,-12,-2.5
CCOC(=O)C1=C(C)N=c2s/c(=C3\C(=O)N(CC)c4ccccc43)c(=O)n2C1c1cccs1 (stereo unspecified),.,1.3
CCN(CC)c1cccc(OC(=O)Nc2ccc(Cl)cc2)c1,-14,.
O=C(c1ccco1)N1CCN(Cc2cccc(Br)c2)CC1,-7,-1.6
CCOC(=O)C12C(=O)OC(C)(C)C1C2(CC)C(=O)c1ccc(C)cc1 (stereo unspecified),-6,.
O=C(O)c1ccc(-n2cccn2)cc1,1,.
CCCC(=O)Nc1ccc(Cl)c(NC(=O)c2ccc(Br)o2)c1,4,0.7
CCCCN1Cc2c(nc3cc(C(C)(C)C)[nH]n3c2=O)C1=O,.,1.6
Cc1nnc(SC(C)C(=O)Nc2ccc3c(c2)OCCO3)s1 (stereo unspecified),-8,.
CCc1cc2c(=O)c(-c3cscn3)coc2cc1OC(C)=O,-16,.
Cc1cc(C)c2nc(C(F)(F)F)nc(N3CCN(c4ccccc4F)CC3)c2c1,0,1.8
CCOc1ccc(CN(C)C(=O)[C@H](C)NC(=O)c2ccco2)cc1OC,14,.
C#C[C@]1(O)CCC2C3CCC4=C(CCC(=O)C4)C3CC[C@@]21C (stereo partly specified),.,2.8
C1CCCCCC(NCCN2CCNCC2)CCCCC1,6,.

# As entered above.
# O=C(O)c1ccc(-n2cccn2)cc1 @ S aureus helic: 1
# CCOC(=O)C1=C(C)N=c2s/c(=C3\C(=O)N(CC)c4ccccc43)c(=O)n2C1c1cccs1 (stereo unspecified) @ MgrA-DNA mod: 1.3

# Single records, as listed above. Values in the order: S aureus helic | MgrA-DNA mod
# Record of `Cc1ccc(C2N=NNC2=S)c(C)c1` (stereo unspecified) = . | -4.7
# Record of `Cc1nnc(SC(C)C(=O)Nc2ccc3c(c2)OCCO3)s1` (stereo unspecified) = -8 | .
# Record of `CC(C)Cn1c(SCc2cn3ccsc3n2)nc2sc3c(c2c1=O)CCCC3` = 11 | .
# Record of `O=C(O)c1ccc(-n2cccn2)cc1` = 1 | .

# Continued:
SMILES,S aureus helic,MgrA-DNA mod
CC(C)c1ccc(N2C=Nc3ccc(C(C)C)cc3C2)cc1,.,-0.9
COc1ccc(-c2noc(CCC(=O)NC3CCCCC3)n2)cc1,5,.
C=CCNC(=O)c1cc(CCC)on1,13,.
Cc1cc(C)cc(-n2c(SCC(=O)NCc3ccc(F)cc3)nc3c(c2=O)SCC3)c1,-2,0.5
O=C(c1cccc(N2C(=O)c3ccccc3C2=O)c1)N1CCOCC1,21,-1.5
CC(NC(=O)Cc1c(F)cccc1Cl)C1CCCO1 (stereo unspecified),3,0.9
O=C1CCCN1CCCNc1ccc(Cl)nn1,-6,-4.1
CCCS(=O)(=O)c1cnc(C)nc1N,.,2.7
COCCn1ccc2c(OCC(=O)c3ccccc3)cccc2c1=O,7,.
CN1C(=O)/C(=C/c2cn(CC(=O)N3CCCC3)c3ccccc23)c2ccccc21,8,14
O=C1CSC2=NC3=C(CCc4ccccc43)C(c3cccs3)N12 (stereo unspecified),.,1.1
O=C(Nc1ccccc1C(F)(F)F)c1ccc(Cn2cnnn2)cc1,-11,-0.8
Cc1ccc(SCc2cc(=O)n3nc(C)sc3n2)cc1,6,.
O=C(CSc1nnc2ccccn12)Nc1ccc(S(=O)(=O)N2CCCCC2)cc1,13,.
Cn1c(=O)c(Nc2ccccc2)c2c3c(cccc31)C(=O)c1ccccc1-2,-10,0.4
Cc1cc(C)c2c(n1)sc1c(=O)n(C)cnc12,7,.
CCC(CC)C(=O)Nc1ccccc1Cl,7,-2.5
O=S(=O)(Cc1ccccc1)c1nc2ccccc2[nH]1,13,.
CN1CCc2c(n(CC(O)CN(CCO)CCO)c3ccccc23)C1=O (stereo unspecified),-35,.
COc1ccccc1OCC#CCn1cnc2ccccc2c1=O,8,0.5
Cc1cc(OCc2ccc(Br)cc2)nc(-c2ccccc2O)n1,9,-1.0
O=C(CSc1ncccn1)NC1CC1,-8,-4.6
O=C(/C=C/c1ccco1)NCCCN1CCN(CCCNC(=O)/C=C/c2ccco2)CC1,-3,1.9
CCOC(=O)/C=c1\s/c(=C\c2cccs2)c(=O)n1CC(=O)N1CCCC1,-16,.
Cc1ccc(CC(=O)N2CCCc3ccccc32)cc1,17,0.9
SMILES,S aureus helic,MgrA-DNA mod
CCOC(=O)C1C(=O)CC(C)(O)C(C(=O)OCC)C1c1ccc(C)cc1 (stereo unspecified),2,.
O=C(Oc1ccccc1-c1ccccc1)c1cncc(Br)c1,-23,1.4
O=C(O)C1Cc2c([nH]c3ccccc23)C(c2ccc(O)cc2)N1 (stereo unspecified),.,2.4
CCOC(=O)CSc1nc2ccccc2[nH]1,.,-2.3&-2.0
O=C(c1ccc(N2CCOCC2)nc1)N1CCCC1,.,0.1
CCc1ccc(C2C(C#N)=C(C)NC3=C2C(=O)CC(C)(C)C3)cc1 (stereo unspecified),15,-0.5
COc1ccc(C(=O)COC(=O)CN2c3nc4ccccc4nc3C3C=CC=CC32)cc1 (stereo unspecified),-1,.
COc1ccc2nonc2c1,.,-1.0
CC(C)Cn1c2ccccc2c2ccccc21,13,3.4
CCOC(=O)Cc1csc(NC(=O)c2ccccc2)n1,1,1.8
CCn1nc(C)c(Br)c1C(=O)Sc1ccc(OC)cc1,37,.
O=C(Cc1ccc(-n2cccc2)cc1)Nc1ccc(Cl)cc1,5,2.1
CCCCNC(=O)Cn1c(=O)sc2ccccc21,-36,.
CC(C)(C)c1cc(OS(=O)(=O)c2ccc(Cl)cc2)c(C(C)(C)C)cc1OS(=O)(=O)c1ccc(Cl)cc1,.,-0.4
CCc1ccc2oc(-c3ccc(OC)cc3)cc(=NCC(=O)O)c2c1,13,-1.9
Cc1cccc2c1NC(C)CC2C (stereo unspecified),-3,.
O=C(COn1nnc2ccc(Cl)cc21)NC(=O)NC1CCCCC1,7,.
CCCC(=O)Oc1ccc2ccc(=O)oc2c1,-2,0.8
CC(C)Sc1nnc(NC(=O)NC(C)(C)C)s1,14,.
CC1CN(C(=O)C2=NN(c3ccccc3)C(=O)CC2)CC(C)O1 (stereo unspecified),4,.
CCOC(=O)c1sc(N)cc1C,4,-1.8
CCOC(Cn1c(SCc2c(F)cccc2Cl)nc2ccccc2c1=O)OCC,1,1.1
O=C(CO/N=C/c1ccccc1OC(F)F)N1CCN(c2ccccc2)CC1,1,.
O=C(Cc1ccccc1)N/N=C/C=C/c1ccco1,.,13
CCn1c(CC(=O)Nc2ccccc2)nnc1SCc1nc2ccccc2c(=O)[nH]1,8,-4.5
SMILES,S aureus helic,MgrA-DNA mod
O=C(CSc1ccccc1C(=O)NCC1CCCO1)Nc1ccc2c(c1)OCO2 (stereo unspecified),-14,.
Cc1ccc(-c2nnn(CC(=O)N3N=C4/C(=C/c5ccco5)CCCC4C3c3ccco3)n2)cc1 (stereo unspecified),-7,.
Cc1ccc(N(Sc2ccc(Cl)cc2)C2C=CS(=O)(=O)C2)cc1 (stereo unspecified),-6,.
CCc1ccccc1NC(=O)C1CC(=O)N(C2CCCCC2)C1 (stereo unspecified),10,8.1
CCCc1nc(N)ncc1C(=O)OCC,.,-1.2
CN(CC1CCCO1)S(=O)(=O)c1ccc(C(=O)Nc2ccc3c(c2)C(=O)NC3=O)cc1 (stereo unspecified),-9,.
CN(c1ccc(C(=O)N2CCCCC2)cc1)S(C)(=O)=O,6,4.9
N#CCc1c(C#N)c(N)nc(NNC(=O)c2ccc(Br)cc2)c1C#N,-12,.
c1coc(-c2cn3ccc4ccccc4c3n2)c1,10,1.2
O=[N+]([O-])c1ccc(S(=O)(=O)c2ccccc2)cc1O,.,-1.9
CNC(=O)c1c(C)nc(SCC(=O)NCc2ccc(OC)cc2)c(C#N)c1-c1ccco1,-24,.
CC(C)N(CCC#N)S(=O)(=O)c1ccccc1,1,0.1
COc1ccc(NC(=S)NCCCN2CCN(C3CCCCC3)CC2)cc1,29,.
O=C1c2[nH]nc(-c3ccccc3O)c2C(c2ccccc2)N1CC1CCCO1 (stereo unspecified),0,.
CC1CCc2nn(CC(=O)N3CCCC3)cc2C1 (stereo unspecified),-8,0.9
COC(=O)c1sccc1NC(=O)CC#N,-32,.
c1ccc(-c2[nH]ncc2CNCc2ccco2)cc1,8,-0.4
O=[N+]([O-])c1ccc(Oc2ccc(-c3ccccc3)cc2)nc1,.,-1.8
CCC1SC2=NC(C)=C(C(=O)OC)C(c3ccccc3Br)N2C1=O (stereo unspecified),12,8.3
O=C(CCN1CCCCC1)c1ccc(-c2ccccc2)cc1,.,-8.1
NC(=O)C1CCCN1c1cnn(Cc2ccccc2)c(=O)c1Cl (stereo unspecified),-1,.
Brc1cccc(Oc2ncnc3sccc23)c1,-24,3.0
O=C(/C=C/c1ccc(O)c(O)c1)O[C@@H]1C[C@](O)(C(=O)O)C[C@@H](O)[C@H]1O,.,1.4&2.7
CN(C)c1ccc(C2Nc3ccccc3-c3nc4ccccc4n32)cc1 (stereo unspecified),4,.
CSc1nnc(SCc2nc(-c3ccc(Cl)cc3)cs2)s1,.,-1.2

# As a working copy, some entries already given:
SMILES,S aureus helic,MgrA-DNA mod
O=C(CCN1CCCCC1)c1ccc(-c2ccccc2)cc1,.,-8.1
NC(=O)C1CCCN1c1cnn(Cc2ccccc2)c(=O)c1Cl (stereo unspecified),-1,.
Brc1cccc(Oc2ncnc3sccc23)c1,-24,3.0
O=C(/C=C/c1ccc(O)c(O)c1)O[C@@H]1C[C@](O)(C(=O)O)C[C@@H](O)[C@H]1O,.,1.4&2.7
CN(C)c1ccc(C2Nc3ccccc3-c3nc4ccccc4n32)cc1 (stereo unspecified),4,.
CSc1nnc(SCc2nc(-c3ccc(Cl)cc3)cs2)s1,.,-1.2

# A draw from above in order of SMILES length, rising.
SMILES,S aureus helic,MgrA-DNA mod
COC(=O)c1sccc1NC(=O)CC#N,-32,.
c1coc(-c2cn3ccc4ccccc4c3n2)c1,10,1.2
CSc1nnc(SCc2nc(-c3ccc(Cl)cc3)cs2)s1,.,-1.2
COc1ccc(NC(=S)NCCCN2CCN(C3CCCCC3)CC2)cc1,29,.
O=C(/C=C/c1ccc(O)c(O)c1)O[C@@H]1C[C@](O)(C(=O)O)C[C@@H](O)[C@H]1O,.,1.4&2.7

# Going on with the list:
SMILES,S aureus helic,MgrA-DNA mod
O=C(CNC(=O)c1ccc2c(c1)SC1=NS(=O)(=O)CCN12)Nc1cc(Cl)ccc1Cl,16,.
COc1ccc(OC)c(NC(=O)c2coc(=O)c3ccccc23)c1,12,.
CCc1ccc(CNCCCSc2nnnn2-c2ccccc2)cc1,11,.
Cc1oc(C(C)(C)C)c(CO)c1C(=O)O,17,-4.8
O=C(CSCc1cc(=O)n2ccsc2n1)Nc1ccccc1,5,.
CC(=O)N=C1c2ccccc2CN1c1cc(Cl)cc(Cl)c1,16,0.4
CCOC(=O)c1ccc(NC(=O)C(CC)Sc2nc3ccccc3o2)cc1 (stereo unspecified),5,0.5
COC(=O)CC1C(=O)NCCN1C(=O)NS(=O)(=O)c1ccc(C)cc1 (stereo unspecified),6,2.6
Cn1c(N)c(C(=O)NCc2ccccc2)sc1=S,-15,.
O=C1CC(c2csc(-c3ccccc3)n2)C2(CCCCC2)O1 (stereo unspecified),4,0.7
Cc1nc(CSc2ccccc2)cc(=O)[nH]1,.,0.6
COc1ccc(N2C(=O)c3ccccc3C2(O)c2ccccc2)cc1OC (stereo unspecified),15,-2.8
Fc1ccc(/C=C/c2cccc3ccccc23)cc1,.,-2.0
O=[N+]([O-])c1ccc(Oc2c(Cl)cccc2Cl)nc1,.,-2.9
Clc1ccc(CN=C2Nc3ccccc3CS2)cc1,.,2.0
CCOC(=O)/C=c1/nc2c([nH]c1=O)=NON2,5,-1.1
CN1C(=O)/C(=C2\SC(=S)N(CC3CCCO3)C2=O)c2ccccc21 (stereo unspecified),0,-1.9
CNS(=O)(=O)c1cccc(C(=O)OCC(=O)Nc2ncc(Cl)cc2Cl)c1,-27,.
COc1cc(C(c2nnnn2C2CCCCC2)N2CCc3ccccc3C2)ccc1O (stereo unspecified),3,-4.0
FC(F)(F)c1cccc(CSC2=NCCCN2)c1,.,-1.4
Cc1cccnc1NC1OC(=O)c2ccccc21 (stereo unspecified),.,-0.7
CCN(CC)C(=O)/C=C/c1ccc(-c2cc(Cl)ccc2Cl)o1,15,.
CC1(C(N)=O)CCCC1,-2,-3.3
COc1ccccc1C1=NOC(COC(=O)c2ccc3ccccc3n2)C1 (stereo unspecified),-1,0.4
O=C(c1cnn(-c2ccccc2)c1-n1cccc1)N1CCCCC1,5,-0.8
O=C(Oc1cccc(C(F)(F)F)c1)c1ccc2nonc2c1,.,3.8
c1ccc(Oc2ncnc3sc4c(c23)CCCC4)cc1,.,-0.6
NC(=O)COC(=O)c1cc2ccccc2cc1O,7,-1.7
